Screens as filed in PubChem BioAssay.
Vaccinia mCherry: inhibitors of vaccinia virus infection (mCherry reporter signal); Vaccinia virus mCherry reporter infection, fluorescence; about a quarter of the inactives have no number; Potency, µM (top dose mostly 36.5 µM), for inactives: at the highest dose activity change, negative = inhibition, most hits filed as inhibitors; actives 0.63% (n = 310,000); active = well fitted inhibition curve with a large enough effect; inconclusive = small, poorly fitted or top-dose-only effect; inactive = no such curve, though single readings can be large or run the other way; tested in A549 cells; further: nearly all actives have a fitted effect of over 35% in size; inactives centre near -10
VACV Venus inh: inhibitors of vaccinia virus (Venus reporter). AID 720580. actives 0.46% (n = 330,000). Vaccinia virus Venus reporter expression, fluorescence. Potency, µM (series often up to 36.5 µM), for inactives: at the highest dose activity change, negative = inhibition, hits mostly inhibitors; active means well fitted inhibition curve with a large enough effect; inconclusive means small, poorly fitted or top-dose-only effect; inactive means no such curve, though single readings can be large or run the other way; tested in A549 cells; further: nearly all actives have a fitted effect of over 30% in size; inactives centre near -10
* marks the source's active call; other numbers are inactive results; i = inactive; ? = inconclusive; / = no result given; [ ] = remark or other dose. On the % scale 0 is the no-effect control and ±100 the full control effect; potency means the concentration at half of the fitted maximal effect.

Start of the listing, in advance, 6 compounds:
Under each structure – Vaccinia mCherry	VACV Venus inh
- CCc1cccc(C)c1NC(=O)CN(C)Cc1cccc(F)c1
 : -13%	-7%
- O=C(Nc1cccc(Cl)c1Cl)c1cc(S(=O)(=O)N2CCC3(CC2)OCCO3)ccc1F
 : -10%	-11%
- Cc1ccn2c(=O)c(NC(=O)COc3ccccc3)c(C)nc2c1
 : -10%	-10%
- Cc1ccc(C(=O)Nc2ncc(Cc3ccc(SC(F)F)cc3)s2)cc1
 : -25%	?
- Cc1ccn2c(=O)c(C(=O)NC(C)c3ccccc3)c(O)nc2c1 (stereo not given)
 : -14%	-26%
- CCn1c(SCC(=O)NCc2ccc(F)cc2)nc2c(c1=O)SC(C)C2 (stereo not given)
 : 5%	-9%

The list itself, previewed entries included:
Under each structure – Vaccinia mCherry	VACV Venus inh
- CCc1cccc(C)c1NC(=O)CN(C)Cc1cccc(F)c1
 : -13%	-7%
- O=C(Nc1cccc(Cl)c1Cl)c1cc(S(=O)(=O)N2CCC3(CC2)OCCO3)ccc1F
 : -10%	-11%
- Cc1ccn2c(=O)c(NC(=O)COc3ccccc3)c(C)nc2c1
 : -10%	-10%
- Cc1ccc(C(=O)Nc2ncc(Cc3ccc(SC(F)F)cc3)s2)cc1
 : -25%	?
- Cc1ccn2c(=O)c(C(=O)NC(C)c3ccccc3)c(O)nc2c1 (stereo not given)
 : -14%	-26%
- CCn1c(SCC(=O)NCc2ccc(F)cc2)nc2c(c1=O)SC(C)C2 (stereo not given)
 : 5%	-9%
- O=C(CSc1nc(=O)n2ccccc2n1)NCc1ccccc1Cl
 : -13%	-15%
- COc1ccccc1C(=O)N1CCN(c2nc3cc(C)c(C)cc3cc2C#N)CC1
 : -18%	-29%
- Cc1cc(C)cc(N2C(=O)CC(c3ccccc3)CC2=O)c1
 : i	-3%
- CC1CCN(C(=O)CN2C(=O)C(=O)c3ccccc32)CC1
 : 5%	-4%
- O=C(C1=C[C@@H](c2ccc3c(c2)OCO3)C[C@@H](OCc2ccc(CO)cc2)O1)N1CCOCC1
 : i	2%
- CC(=O)N1CCCc2cc(S(=O)(=O)N3CCC(C(=O)N(Cc4ccccc4)C(C)C)CC3)ccc21
 : 2%	-8%
- CCC(C(=O)NCc1ccccc1)n1c(Cc2cc(F)cc(F)c2)nc2ccccc21 (stereo not given)
 : -19%	-14%
- CC(C)Oc1ccc(CNC(=O)c2ccc3c(c2)nc2n3CCOC2)cc1
 : -9%[7.34 µM]	-7%[7.34 µM]
- CC(C)C(c1nnnn1Cc1cccs1)N1CCN(C2CCCC2)CC1 (stereo not given)
 : -14%	-10%
- CN(Cc1ccccc1)C(=O)c1ccc2nc([C@H]3C[C@H](O)[C@@H](CO)O3)[nH]c2c1
 : 49%[activator]	-3%
- CC(=O)OCC(=O)C1(O)CCC2C3CCC4=CC(=O)C=CC4(C)C3C(O)CC21C (stereo not given)
 : -26%[7.34 µM]	-5%[7.34 µM]
- O=C(NCCN1CCOCC1)C(=O)c1c[nH]c2ccccc12
 : 4%	1%
- Cc1ccccc1C(=O)NC(C(N)=O)P(=O)(OC(C)C)OC(C)C (stereo not given)
 : i	-5%
- O=C1OCCC1Sc1nnc(-c2ccc(Cl)cc2Cl)o1 (stereo not given)
 : -9%	-12%
- COc1ccc(CNC2CCCc3ccccc32)c(OC)c1 (stereo not given)
 : -13%	-14%
- COc1cc2c(=O)c(S(=O)(=O)c3ccc(F)cc3)cn(Cc3ccc(Cl)cc3)c2cc1OC
 : i	-23%
- CN(C)Cc1ccccc1-c1cncnc1NCc1cccnc1
 : i	0%
- CCCCn1c(C(C)NC(=O)c2ccccc2)nc2ccccc21 (stereo not given)
 : -3%	0%
- COc1ccc(CCNC(=O)CCc2nc3sc4c(c3c(=O)[nH]2)CCCC4)cc1
 : -5%	-6%
- CC1(C(=O)NCCc2ccccc2)Cc2c(-c3ccccc3)ccnc2O1 (stereo not given)
 : -22%	-22%
- CCOC(=O)C1=C(CN2CCN(c3ccccc3)CC2)NC(=O)NC1c1ccc(C)cc1 (stereo not given)
 : -12%	-7%
- CC(C)(C)Cc1c(-c2cccc(Br)c2)nc2ccc(Br)cn12
 : -15%	-21%
- Cc1ccc(Cl)cc1NC(=O)CSC1=Nc2ccccc2C2=NC(Cc3ccccc3)C(=O)N12 (stereo not given)
 : -5%	-12%
- CCOC(=O)N1CCc2c(sc(NC(=O)CN3CCOCC3)c2C(=O)Nc2ccccc2)C1
 : -10%	-5%
- COc1cccc(NC(=O)Cn2cc(C(=O)C3CC3)c3ccccc32)c1
 : i	-9%
- O=C(NC(c1ccccc1)c1ccccc1)N1CCOCC1
 : -2%	2%
- O=C(NC1CCCCC1)N1CCN(c2nc(-c3ccccc3)cs2)CC1
 : -10%	-20%
- O=C(NC(=S)Nc1cc(C(F)(F)F)ccc1N1CCOCC1)c1ccco1
 : -11%	-25%
- CNC(C)c1cc(OC)ccc1OC (stereo not given)
 : -15%	0%
- COc1cc(NC(=O)COC(=O)c2ccc(S(=O)(=O)N3CC(C)CC(C)C3)cc2)c(C)cc1[N+](=O)[O-] (stereo not given)
 : i	-9%
- CCc1ccc(NC(=O)c2nc(SCc3ccccc3F)ncc2Cl)cc1
 : -20%	-16%
- Cc1cc(C(=O)O)cc(S(=O)(=O)N2CCOCC2)c1C
 : 4%	0%
- NNC(=O)CN(CCc1ccccc1)S(=O)(=O)c1ccc(Cl)cc1
 : -22%	-15%
- O=C(Nc1ccccc1[N+](=O)[O-])c1cc2ccccc2nc1Cl
 : i[7.34 µM]	-15%[7.34 µM]
- CC(=O)Nc1cc(C(=O)N2CCCC2)ccc1S(=O)(=O)c1ccc(Cl)cc1
 : -8%	-1%
- COc1ccccc1N(C)S(=O)(=O)c1ccc(C(=O)Nc2cccc(Br)c2)cc1
 : i	-11%
- CCc1ccc2oc(C(=O)Nc3ccccc3OC)cc(=O)c2c1
 : -10%	-3%
- O=C(NCc1ccco1)/C(=C\c1ccc(F)cc1)NC(=O)c1ccco1
 : -17%	-11%
- COc1ccc(S(=O)(=O)NC(C)C(=O)N2CCCCCC2)cc1 (stereo not given)
 : -12%	-10%
- CN(C)c1ccc(-c2cc3ccccc3c(=O)o2)cc1
 : ?	-21%
- CC(=O)N1N=C(c2cccnc2)OC1c1ccccc1Cl (stereo not given)
 : -13%	-9%
- C(=C\c1c[nH]c2ccccc12)/c1cc[n+](C2CCCCC2)cc1
 : i	-10%
- C[C@@H]1[C@H]2CCCC[C@H]2CN(C(=O)OC(C)(C)C)[C@@H]1CC(=O)c1ccccc1
 : -23%	0%
- O=C(NCCSc1c[nH]c2ccccc12)C1CC1
 : -14%	0%
- COc1ccccc1N1CCN(C(=O)c2cc3n(n2)C(C(F)(F)F)CC(c2ccco2)N3)CC1 (stereo not given)
 : /	-24%
- CCc1cc(=O)oc2c(C)c(OCC(=O)N3CC[C@@]4(O)CCCC[C@H]4C3)ccc12
 : 2%	0%
- Cc1cc(NC(=O)Cc2csc(-c3ccccc3)n2)ccc1Br
 : i	-14%
- O=S(=O)(Nc1ccc(OC(F)(F)F)cc1)c1cccc2nonc12
 : -20%	-17%
- CCOc1ccc(Oc2ccc(NC(=O)CSc3nncn3C)cc2)cc1
 : -21%	-15%
- CCOc1cc2c(cc1OCC)-n1cccc1C(c1cccc(OCC)c1O)NC2 (stereo not given)
 : -18%	-2%
- COc1ccc(C(=O)NCCCN2CCCC2=O)cc1
 : -3%	3%
- Oc1cccc(/C=N/Nc2cc(N3CCCC3)nc(N3CCCC3)n2)c1
 : -16%	?
- N=c1n(CC(=O)O)c2ccccc2n1Cc1ccccc1Cl
 : -6%	0%
- C=CCN(c1ccccc1)S(=O)(=O)c1ccc2c(c1)oc(=O)n2C
 : 7%	0%

4 entries from above, field by field:
COc1ccc(C(=O)NCCCN2CCCC2=O)cc1
  Vaccinia mCherry: -3% | VACV Venus inh: 3%
CN(C)c1ccc(-c2cc3ccccc3c(=O)o2)cc1
  Vaccinia mCherry: ? | VACV Venus inh: -21%
COc1ccccc1N1CCN(C(=O)c2cc3n(n2)C(C(F)(F)F)CC(c2ccco2)N3)CC1 (stereo not given)
  Vaccinia mCherry: / | VACV Venus inh: -24%
COc1ccccc1N(C)S(=O)(=O)c1ccc(C(=O)Nc2cccc(Br)c2)cc1
  Vaccinia mCherry: i | VACV Venus inh: -11%

(continued)
Under each structure – Vaccinia mCherry	VACV Venus inh
- CCOC(=O)C1(Cc2ccccc2)CCN(Cc2ccc(C3CCCCO3)s2)CC1 (stereo not given)
 : -15%	-20%
- COc1ccc2c(c1)CCCC2NS(=O)(=O)OCC(Cl)(Cl)Cl (stereo not given)
 : -24%	-5%
- O=C(Nc1cccc(NC(=O)c2ccco2)c1)c1cccc(Br)c1
 : -23%	-21%
- CN(C)CCNc1ccc(-c2nn(C)c(=O)c3ccccc23)cc1[N+](=O)[O-]
 : -13%	-15%
- CC(=O)N1N=C(c2ccc(Br)cc2)CC1c1cn(C)c2ccccc12 (stereo not given)
 : -18%	-23%
- CC(=O)Nc1ccc(NC(=O)CS(=O)(=O)c2cn(CC(=O)N3CCC(C)CC3)c3ccccc23)cc1
 : -16%	-8%
- CCCC(=O)NC(c1ccc(N(C)C)cc1)c1c(O)ccc2ccccc12 (stereo not given)
 : i	-16%
- CC(=O)OCc1nc2sc3c(c2c(=O)[nH]1)CCCC3
 : i	-13%
- Cc1cccc(C(=O)Nc2c(C(=O)NCc3ccc(Cl)cc3)sc3nc(C)cc(C)c23)c1
 : -15%[7.34 µM]	-5%[7.34 µM]
- CCOc1ccc2c(c1)c(C(C)=O)c(C)n2-c1ccccc1
 : ?	-29%
- CC1(c2ccccc2)NC(=O)N(CC(=O)N(c2ccccc2)C2CCS(=O)(=O)C2)C1=O (stereo not given)
 : -11%	-4%
- CC(=O)Nc1ccc(NC(=O)C(C)OC(=O)C2CC(=O)N(CCc3ccccc3)C2)cc1 (stereo not given)
 : -11%	4%
- C[C@H](CO)N1C[C@H](C)[C@@H](CN(C)S(C)(=O)=O)Oc2c(NC(=O)c3ccncc3)cccc2C1=O
 : -14%	-13%
- COc1ccc(C(=O)Nc2ccc3oc(-c4cc(Cl)ccc4Cl)nc3c2)cc1Br
 : -24%	-23%
- CN(CCO)c1cc(N2CCN(C(=O)c3ccco3)CC2)c2nonc2c1[N+](=O)[O-]
 : -9%	-12%
- COc1ccc(OCc2cc(C(=O)N(C)Cc3nccn3C)no2)c2ccccc12
 : -6%	-14%
- COc1ccc(C(=O)Nc2cccc3ccccc23)cc1
 : -16%	-3%
- C=CCn1c(SCc2cc(=O)n3cc(C)ccc3n2)nnc1-c1cccc(C)c1
 : -20%	-15%
- O=C(COc1ccccc1)Nc1ccc(N2CCN(C(=O)c3ccco3)CC2)cc1
 : i	-14%
- CCc1c(C)sc(NC(=O)Cn2nc(C)c([N+](=O)[O-])c2C)c1C(N)=O
 : i	6%
- O=C(O)Cn1nc(-c2ccc(Cl)cc2)ccc1=O
 : i	-3%
- O=S(=O)(c1ccc(Cl)cc1)c1nc(-c2ccccc2F)oc1NCCCN1CCOCC1
 : -14%	-1%
- FC(F)(F)c1ccc(C2[C@H]3CN(Cc4cccnc4)[C@H](c4ccccc4)C34CC2(c2cccnc2)C4)cc1 (stereo not given in full)
 : ?	?
- CCCOC1CCCN(C(=O)c2ccc3oc(C(C)C)nc3c2)C1 (stereo not given)
 : -14%	-7%
- Cc1ccc(NC(=O)Cn2nnc(C(=O)NCc3ccc(Cl)cc3)c2N)cc1F
 : -1%	-18%
- CCc1nnc(NC(=O)CSc2nnc(COc3cccc(C)c3)o2)s1
 : i	-6%
- CCN(Cc1ccccc1)C(=O)CCNS(=O)(=O)c1ccc2c(c1)CC(C)N2C(C)=O (stereo not given)
 : -11%	-6%
- CC(C)(C)NC(=O)c1ccc2c(c1)C1C3CCC(C3)C1C(c1ccccc1)N2 (stereo not given)
 : -9%	-29%
- C[C@@H]1CN([C@H](C)CO)C(=O)CCCn2nncc2CO[C@@H]1CN(C)C(=O)Nc1ccc(N2CCN(C)CC2)cc1
 : i	-14%
- O=C(Cn1nnnc1CN1CCOCC1)N1CCC(c2cccc(Cl)c2)C1 (stereo not given)
 : -5%	-21%
- Cc1ccc(N(C)C(=O)c2cc(S(=O)(=O)N3CCCCC3)c[nH]2)cc1
 : i	-14%
- COc1cccc(OC)c1C(=O)Nc1ccc(-c2nc3ncccc3o2)cc1
 : ?	?
- O=C(c1ccccc1)N1CCN(S(=O)(=O)c2ccc(Cl)c(C(F)(F)F)c2)CC1
 : -11%	-3%
- COc1ccc(-c2cn3c(n2)sc2cc(C(=O)Nc4ccc(C)c(Cl)c4)ccc23)cc1
 : -9%	-4%
- COc1ccc(C(c2sc3nc(C)nn3c2O)N2CCc3ccccc3C2)cc1 (stereo not given)
 : 2%	0%
- CCOC(=O)N1CCN(C(=O)COC(=O)C2CCN(S(=O)(=O)c3c(Cl)cccc3Cl)CC2)CC1
 : i	-16%
- O=C(CCn1nnc(-c2cccs2)n1)N1CCc2ccccc2C1
 : -13%	4%
- CC1(C(=O)Nc2ccccc2)Cc2c(-c3cccc(C(F)(F)F)c3)ccnc2O1 (stereo not given)
 : 10%	3%
- CCOC(=O)c1c(NC(=O)c2ccc(F)cc2)sc2c1CCC(CC)C2 (stereo not given)
 : -10%	-19%
- CCOc1cc(C(C(=O)NCC2CCCO2)N(C(=O)Cn2nnc3ccccc32)c2ccccc2C)ccc1O (stereo not given)
 : i	-13%

Random excerpt: 2 compounds from above.
Under each structure – Vaccinia mCherry	VACV Venus inh
- COc1cccc(NC(=O)Cn2cc(C(=O)C3CC3)c3ccccc32)c1
 : i	-9%
- CCCCn1c(C(C)NC(=O)c2ccccc2)nc2ccccc21 (stereo not given)
 : -3%	0%
